ClpP mod = qHTS Assay for Activators of ClpP; ATP-dependent Clp protease proteolytic subunit (Bacillus subtilis (strain 168)), P80244; purified B. subtilis ClpP, FRET peptide cleavage, 20 min; Potency, µM (doses to about 57.5 µM), inactives show at the highest dose activity change, negative = active; actives 1.9% (n = 340,000); AID 651965, 2013; active = well fitted falling curve with a large enough effect; inconclusive = small, poorly fitted or top-dose-only effect; inactive = no such curve, though single readings can be large or run the other way; further: potency means the concentration at half of the fitted maximal effect; the source files actives as falling curves though it sought activators and does not explain the sign; nearly all actives have a fitted effect of over 65% in size; many hits overshoot -100%
Target sequence (P80244 whole entry, looked up): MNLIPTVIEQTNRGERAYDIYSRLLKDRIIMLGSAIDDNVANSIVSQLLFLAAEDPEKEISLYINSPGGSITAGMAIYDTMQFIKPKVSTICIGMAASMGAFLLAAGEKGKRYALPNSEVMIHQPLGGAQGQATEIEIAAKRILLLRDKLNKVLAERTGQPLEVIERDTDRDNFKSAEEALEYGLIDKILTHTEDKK
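Buffer: 100 mM Tris/HCl pH8, 100 mM KCl, 0.05% low protease BSA, 2.5% glycerol, 0.01% Tween-20. ClpP 10 microg/mL final; 20 min RT; delta FRET normalized to ADEP and DMSO controls.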
Menin-MLL FL inh = displaces fluorescein MLL peptide from human menin; FP activity change, % at 61.4 µM; 290,000 tested, under 10 active; Fluorescence polarization, fluorescein-MLL peptide displacement from menin; inconclusive = falling polarisation curve, or a change in total fluorescence; inactive = total fluorescence flat and polarisation flat or rising; no compound was filed as active; the % refers to the polarisation; negative = inhibition;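 further: % of control where 0% means no effect; inhibitors lower the polarisation; unlabelled MLL peptide was the positive control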
TRPV1 PAM = human TRPV1 potentiation. potentiation, % at 8.33 µM. Q8NER1. TRPV1-expressing cells, Fluo-8 calcium influx, capsaicin EC20 potentiation; host cell line not named in the record; control for the full effect not named in the record. actives 0.02% (n = 320,000). AID 540277; active means potentiation above 80%; inconclusive means 30% to 80%; inactive means below 30%; further: 0% is about no effect
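TRPV1-expressing cells were cultured overnight at 35.5C and loaded with Fluo-8 calcium dye for 40 to 90 min at room temperature. After a 10 s baseline, compound was added and calcium influx was read kinetically for 3 min (ex 480/em 520 nm).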
TRPML1 blocker = blocks the human TRPML1 channel; activity change, negative = inhibition, % (test concentration not listed); TRPML1-inducible cells, Ca2+ dye fluorescence, FDSS; active compounds read low; inhibition of EC80 agonist-evoked calcium signal; AID 624415; actives 0.02% (n = 390,000); Q9GZU1; in the data active means activity change below about -50%; inconclusive means about -30% to -50%; inactive means above about -30%;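 further: stimulus is agonist 54-4 at its EC80 concentration; on the % scale 0 is the no-effect control and ±100 the full control effect; compound concentration not given in the record; the text of the record puts the active cut at -80%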
Target sequence (Q9GZU1 whole entry, looked up): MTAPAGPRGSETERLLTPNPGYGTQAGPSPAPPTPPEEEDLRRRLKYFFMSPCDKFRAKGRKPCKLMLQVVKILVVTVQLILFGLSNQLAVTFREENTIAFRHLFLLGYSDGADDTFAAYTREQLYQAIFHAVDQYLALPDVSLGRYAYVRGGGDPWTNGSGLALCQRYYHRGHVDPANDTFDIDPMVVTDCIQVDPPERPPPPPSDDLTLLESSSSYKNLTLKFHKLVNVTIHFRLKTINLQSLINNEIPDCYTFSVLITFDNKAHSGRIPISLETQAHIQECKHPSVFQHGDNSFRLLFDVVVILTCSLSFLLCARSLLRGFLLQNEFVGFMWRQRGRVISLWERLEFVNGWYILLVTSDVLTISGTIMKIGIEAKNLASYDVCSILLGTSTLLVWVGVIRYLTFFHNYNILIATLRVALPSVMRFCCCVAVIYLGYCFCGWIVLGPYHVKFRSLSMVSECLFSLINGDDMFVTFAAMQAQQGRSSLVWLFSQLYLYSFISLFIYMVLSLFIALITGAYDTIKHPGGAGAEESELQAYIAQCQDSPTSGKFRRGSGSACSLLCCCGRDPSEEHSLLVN
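Calcium fluorescence in TRPML1-DL cells induced overnight with Tet: a 110 s read after compound pin addition, then a 110 s antagonist read after challenge with 54-4 at 4 uM final (EC80).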
gsp antag = gsp mutant antagonism. Potency, µM (doses to about 76.9 µM), without a hit: at the highest dose activity change, negative = inhibition, usual class: inhibitors. actives 0.4% (n = 340,000). gsp-mutant cells, cAMP HTRF, 30 min; control for the full effect not named in the record; active = falling curve of any shape with a large fitted effect; inconclusive = falling curve, mostly with a smaller effect; inactive = flat or rising curve; cell line not stated here;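 further: intracellular cAMP measured with PDE inhibitor Ro 20-1724 present during compound exposure; potency means the concentration at half of the fitted maximal effect; on the % scale 0 is the no-effect control and ±100 the full control effect; nearly all actives have a fitted effect of over 65% in size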
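Measurement of cellular cAMP by homogeneous time-resolved fluorescence following a 30 min compound exposure at 37C. The PDE inhibitor […] was present throughout; the assay buffer was DPBS with 0.05% BSA and 0.005% Tween 20.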
gsp ag = gsp mutant agonism; gsp mutant cells, cAMP HTRF, 30 min; control for the full effect not named in the record; Potency, µM (titrated, usually from 76.9 µM), for inactives: at the highest dose activation (cAMP increase), actives largely listed as activators; actives 0.13% (n = 340,000); AID 624287; active = well fitted activation curve with a large enough effect; inconclusive = small, poorly fitted or top-dose-only effect, or another doubt; inactive = no such curve, though single readings can be large or run the other way; cell line not stated here;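 further: phosphodiesterase inhibitor Ro 20-1724 added with compounds to block cAMP breakdown; potency means the concentration at half of the fitted maximal effect; nearly all actives have a fitted effect of over 60% in size; about a fifth of the inactives were tested at one dose only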
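Cells stably selected in G418 were plated at 2000/well, grown 16-24 hr, then given compounds in DMSO with the PDE inhibitor […] (300 uM solution added) for 30 min at 37C; cAMP was read by HTRF.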
Sfp inh = blocks B. subtilis Sfp PPTase activity | Potency, µM, for the others: max response, negative = inhibition, hits mostly inhibitors | Biochemical Sfp PPTase activity, qHTS | actives 3.5% (n = 310,000); active means well fitted inhibition curve with a large enough effect; inconclusive means small, poorly fitted or top-dose-only effect, or another doubt; inactive means no such curve, though single readings can be large or run the other way;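 further: the enzyme is Sfp with the accession as filed and its product quenches rhodamine fluorescence; potency means the concentration at half of the fitted maximal effect; 0% = enzyme reaction without inhibitor and -100% = no enzyme wells; top concentration of the series not given in the record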
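Step 1, compound plus 15 nM Sfp-PPTase, 15 min, room temperature. Step 2, add rhodamine-CoA (5 uM) and BHQ-2-YbbR (12.5 uM). Step 3, read 525/598 nm fluorescence at 0 and 30 min.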
Numbers without * were called inactive; ? = inconclusive; · = no result given; [ ] = another dose, or the depositor's remark.

nr | SMILES | ClpP mod | Menin-MLL FL inh | TRPV1 PAM | TRPML1 blocker | gsp antag | gsp ag | Sfp inh
1 | CC(C)CN(CC(C)C)C(=O)c1cccc(S(=O)(=O)N2CCc3ccccc32)c1 | · | -2.1 | -7 | 9 | -24% | 5%[15.4 µM] | 6%
2 | O=C1CC(C(=O)Nc2ccc(Cl)cc2)S/C(=N\N=C\c2ccco2)N1 (stereo not drawn) | · | 6.0 | -3 | 29 | -9% | -1%[15.4 µM] | -27%
3 | CCOC(=O)CCCNS(=O)(=O)c1c(C)ccc2nsnc12 | -15% | 5.4 | 6 | 21 | 5% | 0% | 5%
4 | CCCCc1nc2sc3c(=O)[nH]c(=S)[nH]c3c2c2c1CCC2 | · | · | · | -9 | -3% | -4%[15.4 µM] | ·
5 | CC(C)C(=O)Nc1ccc(C(=O)NN2C(=O)c3ccccc3C2=O)cc1 | -3.0% | 4.2 | -2 | -9 | 5% | ? | -5%
6 | COCCNC(=O)c1cnn2c(C(F)(F)F)cc(-c3ccc(C)cc3)nc12 | -18% | 1.6 | -11 | -15 | 35µM* | -78%[inhibitor] | 11%
7 | CCOc1cc(/C=N/O)ccc1OCc1ccc(C)cc1 | -4.0% | 3.2 | 3 | -1 | 25% | -25% | 2%
8 | COc1ccccc1C(=O)N/N=C/c1c[nH]c2ccccc12 | -0.5% | 0.7 | 3 | -15 | -13% | -26% | 4%
9 | Cn1cnc([N+](=O)[O-])c1Oc1ccccc1 | ? | 2.5 | 3 | 3 | 1% | -41%[inhibitor] | -8%
10 | CCCCNC(=S)NNC(=O)c1cccnc1 | -0.3% | 2.2 | 5 | 8 | 2% | 13% | 0%
11 | Cc1ccc(S(=O)(=O)N(c2ccccc2)C2CCS(=O)(=O)C2)cc1 (stereo not drawn) | -0.5% | 0.7 | 8 | -2 | ? | -6% | 10%
12 | O=C1C(Cl)=C(NCc2cccnc2)C(=O)c2ccccc21 | · | -11 | ? | -6 | -2% | 10%[15.4 µM] | -11%
13 | O=C(Cn1ccc(=O)[nH]c1=O)c1ccc([N+](=O)[O-])o1 | -0.3% | · | · | 21 | · | -30%[inhibitor] | ·
14 | CCC(C)N(CC(=O)NCc1ccc(OC)cc1)C(=O)c1csnn1 (stereo not drawn) | 0.0% | -0.3 | 10 | 27 | -8% | -6% | 10%
15 | COc1cc2cc(C(c3nnnn3C3CCCC3)N3CCc4ccccc43)c(=O)[nH]c2cc1OC (stereo not drawn) | -6.5% | 7.8 | 1 | -17 | -3% | -53%[inhibitor] | -10%
16 | CCOC(=O)C1=C(c2ccccc2)NC(N)=NC1c1ccc(OCc2ccc(Cl)cc2)c(OC)c1 (stereo not drawn) | -1.2% | 4.4 | -7 | 18 | 11% | 11% | 32µM*
17 | COc1ccc(OC)c(/C=C/c2c([N+](=O)[O-])c(=O)n(C)c(=O)n2C)c1 | · | ? | 1 | -13 | -26% | 9%[15.4 µM] | 2%
18 | CCC(Sc1nc2c(c(=O)n1CC)SC(C)C2)C(=O)OC (stereo not drawn) | -2.6% | 2.1 | 5 | 44 | -10% | 4% | 10%
19 | Cc1cc(C(=O)COC(=O)C(C)NC(N)=O)c(C)n1Cc1ccco1 (stereo not drawn) | · | 1.8 | 2 | -6 | · | 7%[15.4 µM] | 7%
20 | COc1ccc(CC(=O)Nc2nc(-c3cccc([N+](=O)[O-])c3)cs2)cc1 | 0.6% | 6.9 | -11 | -7 | 2% | -6% | 8%
21 | O=C(OCc1nnc(-c2ccccc2Br)o1)c1ccco1 | 0.4% | · | · | -4 | 2% | -36%[inhibitor] | ·
22 | O=C(N/N=C/c1ccccn1)c1cc(-c2ccc(Cl)cc2)nc2ccccc12 | 0.3% | -2.3 | -17 | 38 | 8% | -10%[15.4 µM] | -5%
23 | COc1ccc(S(=O)(=O)N(CC(=O)N2CCCC2)Cc2ccccc2)cc1 | 2.6% | 5.3 | 2 | -4 | 8% | 7% | 6%
24 | COc1cccc(OCC(=O)N(Cc2nc(-c3ccc(Cl)cc3)no2)C(C)C)c1 | 0.5% | -1.3 | 10 | 52 | -29% | -26% | 8%
25 | O=S(=O)(NCc1ccco1)c1cccc(S(=O)(=O)N2CCOCC2)c1 | -0.9% | -1.2 | 0 | -6 | 11% | -7% | 5%
26 | COc1ccccc1C(CNC(=O)c1ccc(NS(=O)(=O)c2ccc(F)c(C)c2)cc1)N1CCCC1 (stereo not drawn) | -0.9% | · | 11 | 1 | -8% | 12% | ·
27 | COc1ccc(/C=C/C(=O)OCC(=O)NC2CCCC2)cc1OC | 0.8% | · | · | -11 | 9% | -5%[15.4 µM] | ·
28 | CCOC(=O)c1ccc(NC(=S)N2CCCC(C(=O)N3CCCC3)C2)cc1 (stereo not drawn) | -1.8% | · | -8 | -11 | -2% | 23% | 5%
29 | CCOc1nsc(OCC)n1 | · | 0.3 | ? | -8 | 12% | ? | 19%
30 | COC(=O)C1=C(C)NC(C)=C(C(=O)OC)C1C(=O)OCc1nnc(-c2ccccc2Cl)o1 | -17% | · | 5 | 7 | -14% | 6% | ·
31 | N#Cc1ccc2ccn(CC(=O)NC3CCCCCC3)c2c1 | ? | 0.1 | -2 | -10 | -6% | 16% | 16%
32 | Cc1ccc(NC(=S)N2CCC(c3nc4ccccc4s3)CC2)cc1C | -1.4% | -0.7 | -7 | 4 | ? | -34%[inhibitor] | -1%
33 | COC(=O)N/N=C/c1cc(C)n(-c2ccc(Br)cc2)c1C | -1.5% | 1.6 | · | -11 | 10% | 16%[15.4 µM] | -9%
34 | Cc1cccc(CN2C(=O)N/C(=C/c3cc(C)n(-c4ccccn4)c3C)C2=O)c1 | -15% | 4.5 | 10 | 24 | -18% | -15% | 1%
35 | Nc1ccc(C(=O)OCc2ccncc2)cc1[N+](=O)[O-] | · | -1.5 | -2 | -18 | -1% | 17% | 11%
36 | O=C(Cn1cc([N+](=O)[O-])cn1)NCCc1c[nH]c2ccccc12 | -0.8% | -2.3 | -1 | 5 | 2% | 9%[15.4 µM] | 1%
37 | CC(C)(C)NC(=O)NC(=O)COC(=O)c1ccco1 | -1.4% | 3.1 | -1 | -5 | 5% | 3% | -6%
38 | O=C(CCc1nnc2n(Cc3ccc(F)cc3)c(=O)c3ccccc3n12)N1CCN(c2ccccn2)CC1 | -15% | -4.6 | 6 | 2 | -23% | -11% | 5%
39 | O=C(NCc1ccc(F)cc1)c1nc(-c2cccs2)no1 | · | -3.0 | -2 | -2 | 4% | 37% | 5%
40 | CC/C(=N\NC(=O)c1ccc2c(c1)OCO2)C12CC3CC(CC(C3)C1)C2 | -4.0% | 1.0 | -21 | -5 | -5% | -33%[inhibitor] | 12%
41 | Cc1ccc(NC(=O)CCN2C(=O)c3ccncc3C2=O)cc1 | -0.8% | -0.8 | 3 | 13 | 5% | 9% | 19%
42 | NS(=O)(=O)c1cccc(NC(=O)COc2ncnc3c2cnn3-c2ccccc2)c1 | 0.3% | ? | -12 | 15 | -19% | -6%[15.4 µM] | 14%
43 | CN=C1SC(CC(=O)Nc2cccc(C(F)(F)F)c2)C(=O)N1C (stereo not drawn) | 0.0% | 1.8 | 0 | -4 | 3% | -1% | 6%
44 | Cc1csc2nc(CNC(=O)CCC(=O)O)cn12 | 0.4% | 0.6 | 0 | 14 | 11% | -58%[inhibitor] | 6%
45 | CCc1cc(=O)oc2cc(OC(C)C(=O)NCC(O)c3ccccc3)c(Cl)cc12 (stereo not drawn) | 4.0% | -3.6 | 0 | 7 | -12% | 22% | 9%
46 | CC(=O)O/N=C(/c1nonc1N)N(C)C | · | 2.0 | 6 | 8 | 9% | 5%[15.4 µM] | 19%
47 | COc1ccc(NC(=O)C(=O)NCCN2CCN(C(=O)C(c3ccccc3)c3ccccc3)CC2)cc1 | 1.7% | 0.5 | · | -12 | -8% | -54%[inhibitor] | 9%
48 | COC(=O)NN1C(=O)C(c2ccccc2)=C(c2ccc(Cl)cc2)C1=O | · | · | · | 9 | 5% | 3%[15.4 µM] | ·
49 | Cc1cc(NS(=O)(=O)c2ccc(NC(=O)c3cc(-c4ccccc4Cl)nc4ccccc34)cc2)no1 | -1.3% | 0.0 | 18 | 11 | ? | 6%[15.4 µM] | 10%
50 | Cc1ccc(S(=O)(=O)NCc2ccccc2)cc1C(=O)N1CCCCC1 | -0.9% | · | 0 | -2 | -5% | ? | 3%
51 | COc1ccc(C(C)=O)cc1CSc1nnc(SCc2cc(C(C)=O)ccc2OC)s1 | · | 1.0 | 0 | -4 | 6% | -1% | 26%
52 | CCc1ccc(S(=O)(=O)NCc2cn3ccccc3n2)s1 | -7.7% | -1.4 | · | 4 | -11% | -10% | 5%
53 | COc1cc(CC(=O)OCC(=O)Nc2ccc([N+](=O)[O-])cc2)cc(OC)c1OC | 0.8% | -2.6 | -3 | -3 | 7% | -1%[15.4 µM] | 17%
54 | NS(=O)(=O)c1ccc(CCNC(c2ccccc2)c2ccccc2)cc1 | -4.7% | -1.7 | -9 | 64 | 8% | 1%[15.4 µM] | 14%
55 | CC1(C)C2CCC1(C)C(NCC(O)COc1ccc(C#N)cc1)C2 (stereo not drawn) | 0.3% | -13 | 3 | 17 | 18% | 5% | ?
56 | COc1ccccc1NC(=O)CN1C(=O)COc2ccc(S(=O)(=O)N3CCC(C)CC3)cc21 | -0.1% | -0.2 | -9 | 0 | -13% | 3% | 19%
57 | Cc1ccccc1S(=O)(=O)N(C)C[C@@H]1OCc2cnnn2CCCC(=O)N([C@@H](C)CO)C[C@H]1C | -0.5% | · | · | -5 | · | -158%[inhibitor] | ·
58 | CCc1nnc(NS(=O)(=O)c2ccc(NC(=O)c3ccc(Br)cc3)cc2)s1 | -0.6% | 1.1 | -4 | -3 | -13% | -24% | 14%
59 | O=C(NCCCN1CCOCC1)c1cc(S(=O)(=O)N2CCCCC2)ccc1Cl | 1.3% | · | · | -10 | · | ? | ·
60 | COc1ccccc1/C=C/C=N\N1CCN(Cc2ccccc2Cl)CC1 | -1.3% | 0.9 | 14 | 8 | -7% | 8% | 22µM*

Source: PubChem BioAssay (National Center for Advancing Translational Sciences (NCATS))
